Menin MLL FP FL: inhibitors of human menin-MLL interaction, wild-type MLL peptide; Fluorescence polarization, fluorescein-MLL peptide displacement from menin; FP activity change, % at 61.4 µM; 290,000 tested, under 10 active; inconclusive = falling polarisation curve, or a change in total fluorescence; inactive = total fluorescence flat and polarisation flat or rising; no compound was filed as active; the % refers to the polarisation; negative = inhibition;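 also: % of control where 0% means no effect; inhibitors lower the polarisation; unlabelled MLL peptide was the positive control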
Sfp PPTase inh: inhibitors of Bacillus subtilis Sfp phosphopantetheinyl transferase; AID 1490; 3.5% of 310,000 active; Potency, µM, for inactives: max response, negative = inhibition, usual class: inhibitors; Q9F4F7; Biochemical Sfp PPTase activity, qHTS; active = well fitted inhibition curve with a large enough effect; inconclusive = small, poorly fitted or top-dose-only effect, or another doubt; inactive = no such curve, though single readings can be large or run the other way;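 also: the enzyme is Sfp with the accession as filed and its product quenches rhodamine fluorescence; potency is read from the fitted curve at half-maximal effect; 0% = enzyme reaction without inhibitor and -100% = no enzyme wells; top concentration of the series not given in the record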
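With Hepes-Na pH 7.6 buffer containing 10 mM MgCl2, Sfp (15 nM) modified BHQ-2-YbbR (12.5 uM) using rhodamine-CoA (5 uM). Two reads 30 minutes apart at 525/598 nm yielded each well's rate.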
TRPV1 potentiator: enhances activation of the human vanilloid receptor TRPV1. potentiation, % at 8.33 µM. 0.02% of 320,000 active. TRPV1-expressing cells, Fluo-8 calcium influx, capsaicin EC20 potentiation; host cell line not named in the record; control for the full effect not named in the record; active means potentiation above 80%; inconclusive means 30% to 80%; inactive means below 30%; also: 0% is about no effect
Target sequence (Q8NER1 whole entry, looked up): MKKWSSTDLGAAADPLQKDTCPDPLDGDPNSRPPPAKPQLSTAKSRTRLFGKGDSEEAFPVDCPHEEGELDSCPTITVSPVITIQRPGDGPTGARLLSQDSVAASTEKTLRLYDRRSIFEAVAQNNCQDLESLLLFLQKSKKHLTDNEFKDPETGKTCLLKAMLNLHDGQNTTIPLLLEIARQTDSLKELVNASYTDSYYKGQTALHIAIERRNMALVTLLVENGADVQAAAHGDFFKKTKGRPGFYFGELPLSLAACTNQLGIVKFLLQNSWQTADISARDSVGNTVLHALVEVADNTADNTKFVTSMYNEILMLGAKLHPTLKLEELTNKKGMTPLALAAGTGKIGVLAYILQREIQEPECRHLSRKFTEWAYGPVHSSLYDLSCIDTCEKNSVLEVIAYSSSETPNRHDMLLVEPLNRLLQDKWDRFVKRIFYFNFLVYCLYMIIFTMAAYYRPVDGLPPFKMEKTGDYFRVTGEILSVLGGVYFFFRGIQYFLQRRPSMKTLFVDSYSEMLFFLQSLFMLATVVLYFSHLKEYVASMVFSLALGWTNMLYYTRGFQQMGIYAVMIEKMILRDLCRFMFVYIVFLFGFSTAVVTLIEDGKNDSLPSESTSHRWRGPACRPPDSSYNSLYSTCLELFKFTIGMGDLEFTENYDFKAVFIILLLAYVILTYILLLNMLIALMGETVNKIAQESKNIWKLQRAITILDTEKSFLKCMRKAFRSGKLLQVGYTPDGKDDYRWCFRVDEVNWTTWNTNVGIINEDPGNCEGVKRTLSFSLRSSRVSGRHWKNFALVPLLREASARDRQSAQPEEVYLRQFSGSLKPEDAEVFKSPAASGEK
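TRPV1-expressing cells were cultured overnight at 35.5C and loaded with Fluo-8 calcium dye for 40 to 90 min at room temperature. After a 10 s baseline, compound was added and calcium influx was read kinetically for 3 min (ex 480/em 520 nm).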
TRPML1 inh: inhibitors of human TRPML1 channel; 0.02% of 390,000 active; Q9GZU1; activity change, negative = inhibition, % (no concentration beside the values); TRPML1-inducible cells, Ca2+ dye fluorescence, FDSS; hits give low values; inhibition of EC80 agonist-evoked calcium signal; in the data active means activity change below about -50%; inconclusive means about -30% to -50%; inactive means above about -30%;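 also: stimulus is agonist 54-4 at its EC80 concentration; % is scaled to controls: 0 for no effect and ±100 for the full control effect; compound concentration not given in the record; the text of the record puts the active cut at -80%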
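Tet-induced TRPML1-DL cells loaded with Ca8 no-wash calcium dye were read kinetically on FDSS. Compound addition was followed by EC80 agonist 54-4 (4 uM final); inhibition was read over 110 s.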
ClpP mod: qHTS Assay for Activators of ClpP; ATP-dependent Clp protease proteolytic subunit (Bacillus subtilis (strain 168)), P80244; Potency, µM (series often up to 57.5 µM), for the others: top-dose activity change, negative = active; purified B. subtilis ClpP, FRET peptide cleavage, 20 min; 1.9% of 340,000 active; active = well fitted falling curve with a large enough effect; inconclusive = small, poorly fitted or top-dose-only effect; inactive = no such curve, though single readings can be large or run the other way; also: potency is read from the fitted curve at half-maximal effect; the source files actives as falling curves though it sought activators and does not explain the sign; nearly all actives have a fitted effect of over 65% in size; many hits overshoot -100%
Target sequence (P80244 whole entry, looked up): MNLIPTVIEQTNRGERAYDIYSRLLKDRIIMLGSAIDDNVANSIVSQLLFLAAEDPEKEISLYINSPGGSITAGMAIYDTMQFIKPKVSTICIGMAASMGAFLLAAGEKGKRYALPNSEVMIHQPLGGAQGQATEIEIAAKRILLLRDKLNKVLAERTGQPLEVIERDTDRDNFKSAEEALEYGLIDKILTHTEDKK
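ClpP 10 microg/mL final, pH 8 Tris/KCl buffer with BSA, glycerol, Tween-20; compound pinned in; FRET-FV substrate; RT 20 min; Ex320/Em430; ΔFRET vs ADEP 5.8 microM, DMSO, no enzyme.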
gsp antag: gsp mutant antagonism | Potency, µM (top dose mostly 76.9 µM), for inactives: at the top dose activity change, negative = inhibition, actives largely listed as inhibitors | 0.4% of 340,000 active | AID 624288 | gsp-mutant cells, cAMP HTRF, 30 min; control for the full effect not named in the record; active = falling curve of any shape with a large fitted effect; inconclusive = falling curve, mostly with a smaller effect; inactive = flat or rising curve; cell line not stated here;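 also: intracellular cAMP measured with PDE inhibitor Ro 20-1724 present during compound exposure; potency is read from the fitted curve at half-maximal effect; % is scaled to controls: 0 for no effect and ±100 for the full control effect; nearly all actives have a fitted effect of over 65% in size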
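G418-selected cells were plated in DMEM/10% FBS for 16-24 h at 37C, then treated with compounds plus the PDE inhibitor […] (300 uM solution added) for 30 min at 37C. Intracellular cAMP was measured by HTRF after 30 min lysis at room temperature.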
gsp agonist: activates gsp, the McCune-Albright syndrome mutation. Potency, µM (titrated, usually from 76.9 µM), for the others: at the top dose activation (cAMP increase), usual class: activators. 0.13% of 340,000 active. gsp mutant cells, cAMP HTRF, 30 min; control for the full effect not named in the record; active = well fitted activation curve with a large enough effect; inconclusive = small, poorly fitted or top-dose-only effect, or another doubt; inactive = no such curve, though single readings can be large or run the other way; cell line not stated here;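 also: phosphodiesterase inhibitor Ro 20-1724 added with compounds to block cAMP breakdown; potency is read from the fitted curve at half-maximal effect; nearly all actives have a fitted effect of over 60% in size; about a fifth of the inactives were tested at one dose only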
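Cells in DMEM/10% FBS with G418 were pretreated with compounds in DMSO plus […] (300 uM stock) for 30 min at 37C. cAMP was measured by HTRF (cAMP-d2 plus anti-cAMP antibody-K) after 30 min at room temperature.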
* hit, by the source's call; i = inactive; u = inconclusive; x = no result given; & = joins results of further samples; [ ] = another dose, or the depositor's remark.

SMILES	Menin MLL FP FL	Sfp PPTase inh	TRPV1 potentiator	TRPML1 inh	ClpP mod	gsp antag	gsp agonist
O=C(COc1ccccc1)Nc1ccc(N2CCCCC2)cc1	x	x	-2	0	x	7%	-20%[15.4 µM]
Cc1cc2nc3c(c(=O)n2[nH]1)CCCC3	-0.5	12%	8	-1	-17%	-11%	20%
Cc1nn(Cc2ccc(F)cc2)c(Cl)c1/C=N/NC(=O)c1ccccc1	1.3	18%	3	14	x	-10%	5%[15.4 µM]
CCn1c(=N)n(CC(O)COc2cccc(C)c2)c2ccccc21 (stereo not given)	-1.6	u	-20	10	-1.0%	13%	-2%
COc1ccc(C(=O)c2cc([N+](=O)[O-])ccc2N2CCCC2)cc1	4.9	15%	-19	-11	-2.8%	8%	-12%
COc1ccc([C@]23Cc4cc(OC)c(OC)cc4C(O2)c2c(cc(C)n(Cc4ccccc4)c2=O)O3)cc1	u	-9%	i	x	x	x	x
CC(C)(C)c1ccc(OCC(=O)Nc2cccc(S(=O)(=O)NC3=NCCCCC3)c2)cc1	x	x	-5	21	0.2%	-17%	u
Cc1cccc(NC(=O)CNC(=O)COc2ccc(-c3ccc(C#N)cc3)cc2)c1C	2.2	0%	-6	-16	u	2%	-1%[15.4 µM]
COc1ccccc1CNC(=O)CN(c1cccc([N+](=O)[O-])c1)S(C)(=O)=O	0.1	17%	-3	4	0.8%	11%	1%
COc1ccc(/C=N/N=C2\SCC(=O)N2c2c(C)n(C)n(-c3ccccc3)c2=O)cc1OC	5.5	9%	-4	-7	-3.0%	-11%	u
COc1ccc(NC(=O)c2cc(-c3ccc4c(c3)OCO4)on2)cc1	2.6	-3%	5	-10	-4.7%	8%	-3%[15.4 µM]
CC1=NN(C(=O)c2ccoc2C)C(O)(C(F)(F)F)C1 (stereo not given)	-0.4	11%	-3	-14	x	5%	10%[15.4 µM]
COc1ccc(OC)c(CNC(=O)Cc2c(C(=O)O)[nH]c3ccccc23)c1	4.8	4%	13	-16	-3.5%	1%	-15%
Cc1cc(C)c(C2=Nn3c(C)nnc3SC2C)cc1C (stereo not given)	-2.9	-3%	-8	5	x	-7%	u
CCc1ccccc1NC(=O)CNC(=O)c1ccc(-n2cncn2)c([N+](=O)[O-])c1	x	x	3	-8	-6.8%	-8%	16%
Cc1ccc(S(=O)(=O)Nc2cc(-c3ccccc3)nn2C)cc1	0.3	33%[activator]	-1	11	x	-22%	14%
COc1ccccc1N(C(=O)Cn1nnc(-c2ccc(C)o2)n1)C(C(=O)NC1CCCC1)c1ccncc1 (stereo not given)	-3.0	3%	-5	25	x	0%	20%
Cc1cc(=O)oc2c3c(cc(OCC(=O)NCc4ccncc4)c12)OC(C)(C)CC3	-11	14%	-27	14	3.8%	2%	9%
COc1ccc(Cl)cc1-c1nc(-c2ccc(NC(=O)c3cccs3)cc2)no1	x	-5%	-8	-11	12%	-16%	-2%[15.4 µM]
Cc1onc(-c2ccccc2)c1C(=O)N1CCc2ccccc21	2.4	4%	-13	9	-0.2%	u	-30%

The final six compounds of the section before come first, to join the parts.
SMILES	Menin MLL FP FL	Sfp PPTase inh	TRPV1 potentiator	TRPML1 inh	ClpP mod	gsp antag	gsp agonist
CCc1ccccc1NC(=O)CNC(=O)c1ccc(-n2cncn2)c([N+](=O)[O-])c1	x	x	3	-8	-6.8%	-8%	16%
Cc1ccc(S(=O)(=O)Nc2cc(-c3ccccc3)nn2C)cc1	0.3	33%[activator]	-1	11	x	-22%	14%
COc1ccccc1N(C(=O)Cn1nnc(-c2ccc(C)o2)n1)C(C(=O)NC1CCCC1)c1ccncc1 (stereo not given)	-3.0	3%	-5	25	x	0%	20%
Cc1cc(=O)oc2c3c(cc(OCC(=O)NCc4ccncc4)c12)OC(C)(C)CC3	-11	14%	-27	14	3.8%	2%	9%
COc1ccc(Cl)cc1-c1nc(-c2ccc(NC(=O)c3cccs3)cc2)no1	x	-5%	-8	-11	12%	-16%	-2%[15.4 µM]
Cc1onc(-c2ccccc2)c1C(=O)N1CCc2ccccc21	2.4	4%	-13	9	-0.2%	u	-30%
CC(C)Oc1cccc(C(=O)C2CCCN(Cc3cccn3-c3cccnc3)C2)c1 (stereo not given)	-2.6	5%	19	6	-2.2%	-26%	2%
O=C(Nc1ccc(N2CCOCC2)c(Cl)c1)c1cccnc1	4.6	1%	x	14	0.9%	9%	-26%
Cc1ccc(NC(=S)NNC(=S)NC2CCCCC2)cc1	5.4	40µM*	16	0	-1.1%	-11%	-10%[15.4 µM]
Cc1ccc(C)c(C(=O)O/N=C(\N)c2ccc(Br)cc2)c1	-1.3	6%	17	12	-0.3%	-10%	-8%
N#Cc1c(N)c(C(=O)c2ccc(Cl)cc2)n2c1CCC2	1.7	12%	4	-4	1.4%	-2%	-1%
Cc1occc1C(=O)NNC(=O)C1CCCCC1	-2.6	7%	13	-2	-11%	6%	-9%
COC(=O)c1ccc(C2NC(=O)CCC2[N+](=O)[O-])cc1 (stereo not given)	-1.9	6%	2	-8	x	4%	-17%
O=C(CCCOc1ccc(Cl)cc1Cl)N1CCCc2ccccc21	-5.1	u	26	0	-5.2%	-9%	1%
COc1ccc(NC(=O)CNS(=O)(=O)c2ccc(Cl)cc2)cc1	5.2	-9%	-13	7	-0.8%	-8%	-24%
Cc1ccc(-c2nnc(SCC(N)=O)n2C)cc1	-1.9	30%	2	-1	x	1%	40%
CCc1ccc(-c2nnn(Cc3nn[nH]n3)n2)cc1	1.0	17%	0	23	0.3%	2%	-57%[inhibitor]
O=C(N/N=C/c1ccc(OCc2ccccc2)cc1)c1ccncc1	3.5	14%	-11	42	-6.4%	-11%	1%
COc1ccc(/C=N/NC(=O)c2ccc3nc[nH]c3c2)c(OC)c1OC	0.4	29%	22	8	x	5%	20%[15.4 µM]
COc1ccc(S(=O)(=O)Nc2cc(S(=O)(=O)c3ccccc3)c(O)cc2C)cc1	65[activator]	11%	6	-5	x	-17%	9%
O=C(c1ccccc1)c1ccccc1C(=O)N1CCOCC1	3.1	19%	-2	-3	-0.8%	12%	-1%
CCOc1ccc(/C=C/C(=O)Oc2ccc(OC)cc2)cc1	0.2	20%	17	17	-11%	1%	-7%[15.4 µM]
CN(C)CCCn1c(SCc2ccc(Cl)cc2)nnc1-c1ccncc1	-1.1	15%	u	-7	-0.3%	7%	-12%
CCOc1cc(/C=C2\NC(=O)NC2=O)cc([N+](=O)[O-])c1O	1.7	2%	-14	x	0.5%	-37%	18%
CCCCCN(C(=O)CCC(=O)OCC(=O)NCCc1ccccc1)c1c(N)n(CCCC)c(=O)[nH]c1=O	x	x	x	-1	0.0%	x	-3%
Cc1nn(CCC(=O)NNC(=S)Nc2ccc(F)cc2)c(C)c1Br	5.1	8%	6	-16	-2.5%	4%	u

Looked up by structure from above, 2 records:
SMILES	Menin MLL FP FL	Sfp PPTase inh	TRPV1 potentiator	TRPML1 inh	ClpP mod	gsp antag	gsp agonist
CCCCCN(C(=O)CCC(=O)OCC(=O)NCCc1ccccc1)c1c(N)n(CCCC)c(=O)[nH]c1=O	x	x	x	-1	0.0%	x	-3%
COc1ccc(/C=N/NC(=O)c2ccc3nc[nH]c3c2)c(OC)c1OC	0.4	29%	22	8	x	5%	20%[15.4 µM]

Additional results.
SMILES	Menin MLL FP FL	Sfp PPTase inh	TRPV1 potentiator	TRPML1 inh	ClpP mod	gsp antag	gsp agonist
Cc1ccc(-c2nn(-c3ccccc3)cc2C(=O)N2CCN(c3ccccn3)CC2)cc1	-4.8	3%	-11	20	x	x	-19%[15.4 µM]
Cc1ccc(S(=O)(=O)N2CCC(C(=O)O)CC2)cc1C(=O)O	0.6	-4%	12	7	1.0%	3%	-41%[inhibitor]
CS(=O)(=O)N(CC(=O)N1CCN(c2ccccc2)CC1)c1ccc(Cl)c(C(F)(F)F)c1	1.3	5%	13	2	-2.2%	-18%	-30%
C=CCn1c(-c2ccc(OC)c(OC)c2)n[nH]c1=S	-1.4	79µM*	5	17	-28%	11%	-11%
O=C(O)c1ccc(-n2cccn2)nc1	-0.6	-14%	4	-6	x	2%	-3%
COc1cc(Cl)c(C)cc1NC(=O)CN(C)C1CCS(=O)(=O)C1 (stereo not given)	x	x	x	-1	-3.0%	-1%	1%
CCc1c(C)nc(SCC(=O)CC(=O)OC(C)C)c(C#N)c1C	2.7	3%	-4	2	158%	-39%	-52%[inhibitor]
CCOC(=O)C(C)Sc1nc2ccccc2c(=O)n1CC (stereo not given)	-0.9	1%	-3	-1	-0.7%	4%[15.4 µM]	-22%
CSc1ccc(CNC(=O)C2CCC(=O)N(CCc3ccc(Cl)cc3)C2)cc1 (stereo not given)	x	x	x	9	-0.1%	x	-14%
CC(NC(=O)C1=CC=CN2CCS(=O)(=O)N=C12)c1ccc(Cl)c(Cl)c1 (stereo not given)	x	x	x	3	x	-5%	-1%
COC(=O)[C@]1(CC(C)C)N[C@H](c2ccc(-c3ccc(C(C)=O)cc3)cc2)[C@@H]2C(=O)N(C)C(=O)[C@@H]21	x	x	x	11	0.3%	2%	-5%
COc1ccc(S(=O)(=O)c2c(C)c(NS(=O)(=O)c3ccccc3)cc(C)c2O)cc1	-2.5	-8%	22	71&80	0.7%	-19%	-2%[15.4 µM]
COc1ccc(CCN(C)CCc2ccc(OC)c(OC)c2)cc1OC	4.8&-6.0	16%&16%&13%	x	3	-2.2%	16%	x
COC(=O)c1ccccc1NC(=O)c1cc2n(n1)C(C(F)F)CC(C(F)F)N2 (stereo not given)	-0.6	6%	5	9	-1.0%	4%	u
Cc1[nH]c2ccccc2c1C(=O)CN1CCN(C2CCCCC2)CC1	3.2	8%	-2	x	x	x	x
CCOC(=O)CSc1nc(C2CC2)nc2ccccc12	-2.4	89µM*	2	5	-2.9%	-18%	12%
Cc1nn(C(C)C)c(C)c1CN1CCN(Cc2ccsc2)C(CCO)C1 (stereo not given)	0.7	17%	9	-7	x	-7%	11%[15.4 µM]
CC(C)NC(=O)c1cc2ccccc2o1	-1.2	3%	-9	-6	-2.0%	8%	-23%
N#Cc1ccc(C23CC4(C2)[C@H](CN(Cc2cccnc2)[C@@H]4c2ccccc2)C3c2ccccc2)cc1 (stereo not given in full)	-0.1&4.8	u	15	74	-7.1%	-3%	-22%
